# Screening results as filed in PubChem.
# MenB inh = blocks the Mycobacterium tuberculosis MenB enzyme; hit rate 0.43% among 100,000; P9WNP5; AID 540299; MenB enzyme assay, absorbance read-out; some hits fall short of the stated cut; inhibition, %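 (about 12 µg/mL by stock and volumes)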;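 active means mean of two replicates above 30%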;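 further: 0% = no compound and 100% = wells with inactive enzyme; the first replicate is given; strong numbers were not always called active; inactives centre near -10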
# Polio RdRp inh = inhibitors of poliovirus RNA polymerase binding and polymerization. % elongation, % (compound at 16.7 µg/mL). poliovirus polymerase elongation, fluorescence polarization; hits give low values. hit rate 0.66% among 150,000. AID 588519. P03300; in the data active means % elongation below about 90%; further: some results filed as inactive read as strong as hits
# Target sequence (P03300 1749-2209 limits assumed): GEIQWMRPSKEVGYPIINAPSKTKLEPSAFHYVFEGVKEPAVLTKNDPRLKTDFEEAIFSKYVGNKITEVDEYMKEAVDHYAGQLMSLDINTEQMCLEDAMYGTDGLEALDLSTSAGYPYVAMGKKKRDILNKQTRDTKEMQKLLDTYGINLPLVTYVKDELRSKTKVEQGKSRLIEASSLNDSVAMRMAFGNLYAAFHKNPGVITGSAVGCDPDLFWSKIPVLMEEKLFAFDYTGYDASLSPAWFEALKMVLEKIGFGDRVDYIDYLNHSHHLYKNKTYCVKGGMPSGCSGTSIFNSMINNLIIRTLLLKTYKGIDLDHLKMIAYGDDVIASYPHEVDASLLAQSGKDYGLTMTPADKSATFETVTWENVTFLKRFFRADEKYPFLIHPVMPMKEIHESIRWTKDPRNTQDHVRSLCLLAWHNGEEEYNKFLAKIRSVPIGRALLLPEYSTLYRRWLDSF
# Mtb MbtI inh = MbtI salicylate synthase inhibition; P9WFX0; purified MbtI enzyme, fluorescence intensity read-out; inhibition, %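 (about 17 µg/mL by stock and volumes)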; hit rate 0.89% among 100,000; AID 493033;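 active means above 50% in both replicates, above 80% if mildly self-fluorescent; inactive means the rest, strongly fluorescent compounds included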;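 further: 0% = mean of negative and 100% = mean of positive controls; one replicate is shown; some compounds called inactive have numbers as strong as hits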
# Target sequence (P9WFX0 whole entry, looked up): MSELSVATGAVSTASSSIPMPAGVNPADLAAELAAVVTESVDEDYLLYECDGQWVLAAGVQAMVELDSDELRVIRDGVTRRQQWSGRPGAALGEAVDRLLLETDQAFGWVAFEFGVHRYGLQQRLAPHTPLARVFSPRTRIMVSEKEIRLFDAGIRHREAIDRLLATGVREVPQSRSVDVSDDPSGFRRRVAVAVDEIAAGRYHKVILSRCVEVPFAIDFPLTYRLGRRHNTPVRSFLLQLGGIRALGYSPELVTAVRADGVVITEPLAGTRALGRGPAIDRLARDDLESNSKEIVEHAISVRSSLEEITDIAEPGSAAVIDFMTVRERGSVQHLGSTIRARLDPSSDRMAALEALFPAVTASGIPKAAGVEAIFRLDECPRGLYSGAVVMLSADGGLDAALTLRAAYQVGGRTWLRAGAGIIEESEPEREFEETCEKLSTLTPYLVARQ
# Polio RdRp inh intensity = second read-out of Polio RdRp inh, no call of its own (marks repeat the call); % elongation; measured here: total intensity read-out; formula for this scale not given here;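 total fluorescence in place of polarization; lower means less elongation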
# An asterisk follows results filed as active; i = inactive; . = no result given.
SMILES,MenB inh,Polio RdRp inh,Polio RdRp inh intensity,Mtb MbtI inh
Cn1c(-c2ccc3ccccc3n2)[n+](C)c2ccccc21,-7,102,104,28
O=c1[nH]c2ccccc2c(=O)n1/N=C/c1cc(Cl)cc(Cl)c1O,0,106,109,-29
Cc1onc(-c2ccccc2)c1-c1ccnn1S(=O)(=O)c1ccc(Cl)cc1,-27,101,106,-6
CS(=O)(=O)n1cc(C(F)(F)F)ccc1=O,.,105,104,-11
COc1ccc(C2=NN(CC(=O)NCC(OC)OC)C(=O)CC2)cc1,-2,101,102,1
COC(=O)C1C(O)=C(C=Nc2ccccc2)C(=O)CC1(C)C (stereo unspecified),34*,101,105,31
O=c1cc(CNc2cccc(F)c2)nc2ccc(Br)cn12,-12,104,106,3
CCCn1c(=O)c2ccccc2n2c(SCC(=O)NC(=O)NC)nnc12,6,98,110,-2
Cc1nnc(SCC(=O)N2CCC(C)CC2)c2nn(-c3ccccc3)c(C)c12,13,101,107,1
O=S(=O)(c1ccc(Oc2ccc(-c3nnco3)cc2)nc1)N1CCC(Cc2ccccc2)CC1,-27,.,.,8
O=C(NC1CC1)c1c(Cl)cccc1Cl,-16,102,104,-8
Cc1cccn2c(=O)c(/C=C(\C#N)C(=O)NCCc3ccccc3)c(NCCOCCO)nc12,3,99,103,111
Cc1cccc(OC(C)c2nc3ccccc3[nH]2)c1 (stereo unspecified),-11,98,104,-10
O=C(NCC12CC3CC(CC(C3)C1)C2)c1nc2ncccn2n1,-25,104,100,.
CCc1ccc(NS(=O)(=O)c2ccc(-n3cccn3)cc2)cc1,-6,104,104,-17
Cc1ccc(C(C(=O)NCc2ccccc2)N(C(=O)c2snc(C(N)=O)c2N)c2ccc3c(c2)OCCO3)o1 (stereo unspecified),-33,102,102,11
CCC1CN(C(=O)Nc2ccc(OC)cc2)c2ccccc2S1 (stereo unspecified),2,101,103,-12
CCC1(C)CC(CC(=O)OC(C)CN(C)C)(c2ccccc2)CCO1 (stereo unspecified),-4,104,104,.
Cc1oc(-c2ccccc2)nc1C(=O)Nc1ccccc1C(=O)Nc1ccc2c(c1)OCO2,1,98,96,15
O=C(Nc1ccccc1)Nc1ccc(Oc2cccnc2)nc1,-17,102,102,-1
CN1C(=O)/C(=C\c2ccc(C(=O)N3CCC4(CC3)OCCO4)cc2)SC1=S,-7,.,.,-4
O=C(Cn1c2c(c(-c3ccccc3Cl)cc1=O)CCC2)NC1CC1,-13,103,100,-33
CS(C)=C1C(=O)NC(=O)N(c2ccccc2F)C1=O,6,107,112,.
Cc1ccc(NC(=O)NC(C)c2c(-n3cccc3)sc(C)c2C)cc1 (stereo unspecified),-8,104,101,-9
N#Cc1cc2sc3nc4ccccc4n3c2cc1C#N,33,101,102,0

# Remaining list, next part.
SMILES,MenB inh,Polio RdRp inh,Polio RdRp inh intensity,Mtb MbtI inh
Nc1nonc1NC(=O)CSc1ncccc1C(=O)O,-10,108,111,.
CSC1=N/C(=C\c2ccc(Cl)cc2)C(=O)N1CCc1c[nH]c2ccccc12,-23,104,109,2
CC1CCC(C(C)C)C(=O)/C1=C/c1ccc(N)cc1 (stereo unspecified),-36,102,101,-1
COc1cccc2cc(C(=O)Nc3cccc(Cn4cccn4)c3)c(=O)oc12,0,101,104,-7
CC1(c2ccccc2)Nc2ccccc2-c2nc3ccccc3n21 (stereo unspecified),-13,103,99,103
O=C(/C=C/c1ccccc1)Nc1nnc(-c2ccco2)o1,13,99,104,22
COc1ccccc1OCc1nnc(SCCN2CCOCC2)o1,-92,103,104,0
CC(=O)Nc1ccc(C(=O)OCC(=O)N2CC3(C)CC2CC(C)(C)C3)cc1 (stereo unspecified),.,103,105,-1
O=C(CSc1nnc(COc2ccccc2Cl)o1)NC(=O)NC1CCCC1,-11,99,105,0
Cc1sc2c(c1C)C(O)=C(C(=O)Nc1ccc(Cl)cc1)S(=O)(=O)N2C,-1,105,101,15
C=CCn1cnc2c(NCc3ccccc3)ncnc21,-13,101,103,-7
NCC1CC2C=CC1C2 (stereo unspecified),-14,101,105,-3
CCOC(=O)c1c(/N=C/C2C(=O)NC(=O)NC2=O)sc2c1CCCCC2,-8,119,166,1
C/C(=N\OCC(=O)Nc1ccc2c(c1)OCO2)c1cc2ccccc2o1,-34,103,107,7
Nc1ncc2c(n1)CC(c1ccco1)CC2=O (stereo unspecified),-1,101,101,-9
O=C(Cc1cccc2ccccc12)Nc1ccc(I)cc1,-4,103,106,-7
O=C(OCc1ccc(Br)cc1)c1ccc(Br)o1,.,104,107,-2
O=C(CCc1nc2cccnc2n1-c1ccccc1)NCc1ccccc1,5,100,106,0
COc1ccc(OC)c(NC(=O)CCN2CCN(c3ccccc3F)CC2)c1,-7,100,100,-5
Cn1cc(C=C2C(=O)CC(C)(C)CC2=O)c2ccccc21,.,102,100,17
O=c1[nH]cnc2c1nnn2Cc1ccc(F)cc1,-3,102,107,.
COc1cccc(-c2nn(C)c3sc(C(=O)N4CCCc5ccccc54)cc23)c1,-59,102,95,63
CCCCn1c(-c2ccc(N)cc2)nc2ccccc21,.,102,105,78
CN(Cc1cn(-c2ccccc2)nc1-c1ccc(F)cc1)C(=O)CCC(=O)O,-4,96,95,-16
Cc1nn(-c2cccc(Cl)c2)nc1C(=O)N1CCN(C(=O)C2CC2)CC1,1,107,107,-6

# Exported as labelled records: part of the list above
CN(Cc1cn(-c2ccccc2)nc1-c1ccc(F)cc1)C(=O)CCC(=O)O
  MenB inh: -4
  Polio RdRp inh: 96
  Polio RdRp inh intensity: 95
  Mtb MbtI inh: -16

Cc1nn(-c2cccc(Cl)c2)nc1C(=O)N1CCN(C(=O)C2CC2)CC1
  MenB inh: 1
  Polio RdRp inh: 107
  Polio RdRp inh intensity: 107
  Mtb MbtI inh: -6

# (further entries)
SMILES,MenB inh,Polio RdRp inh,Polio RdRp inh intensity,Mtb MbtI inh
COc1ccc(OC)c(C2C(C(=O)Nc3ccccn3)=C(C)NC3=C2C(=O)CCC3)c1 (stereo unspecified),-31,105,109,0
O=C(Nc1ccc(-c2cn3ccsc3n2)cc1)C1CCCC1,8,99,99,14
CCOC(=O)c1ccc2[nH]cc(C(=O)OCC)c(=O)c2c1,-21,106,102,-12
O=C(CSc1nnc(Cc2ccccc2)o1)NCc1ccco1,-18,103,108,-6
Cc1cccc(NC2=NCCCS2)c1,7,103,114,-11
Cc1cc(/C=C2\CCC(C3CCCC3)C2=O)c(C)n1-c1ccccc1 (stereo unspecified),-24,103,104,6
NC(Cc1ccccc1F)C(=O)O (stereo unspecified),7,101,108,.
Cc1ccc(C(=O)c2cnc3cc4c(cc3c2N2CCCCC2)OCO4)cc1,-46,100,112,4
O=C(Nc1cc(C(F)(F)F)ccc1N1CCc2ccccc2C1)c1ccccc1,7,102,94,0
CC(C)(C)NC(=O)C1=CC=CN2CCS(=O)(=O)N=C12,-6,104,107,2
N#C/C(=C\c1ccsc1)S(=O)(=O)c1ccc(C(F)(F)F)cn1,17,106,109,-15
Fc1ccc(Cn2cccc2C2=NC(c3ccccc3)CO2)cc1 (stereo unspecified),-22,102,106,0
O=C(CN1C(=O)C2CC=CCC2C1=O)Nc1ccccc1C(=O)Nc1ccccc1 (stereo unspecified),-12,108,113,-14
N=c1nc(-c2ccccc2)ccn1O,7,102,100,4
NNC(=O)c1csc(COc2ccccc2Cl)n1,3,100,104,6
O=C(O)C1=CSCCO1,-3,101,102,3
CC(=O)N1CCN(C(=O)C2C3CC4CC(C3)CC2C4)CC1 (stereo unspecified),10,100,106,-2
COC(=O)Cc1coc2cc(C)c(Cl)cc12,-51,100,102,8
O=C1Nc2ccccc2/C1=C\c1cn(CC(=O)N2CCCC2)c2ccccc12,0,100,102,0
Cc1cc(C)nc(-n2ncc3c2CCCC3=O)n1,-39,103,102,-9
CNC(=O)NC(=O)CSc1ncc(C(F)(F)F)cc1Cl,-16,106,106,-12
O=C(CN1CCCC1)N1CCN(C(=O)c2ccccc2)C1,0,100,103,2
Cc1nc2ccc(-c3nc4ccc(NC(=O)c5cccs5)cc4[nH]3)cc2[nH]1,-18,104,105,40
CCn1c(=O)cc(OCC(=O)NC2CCCC2)c2ccccc21,-25,103,103,-2
CCN(CC)S(=O)(=O)c1ccc(/C=C/C(=O)OCC(=O)Nc2cccnc2Cl)cc1,1,101,104,10

# Looked up above:
# Under Polio RdRp inh intensity, O=C(CSc1nnc(Cc2ccccc2)o1)NCc1ccco1 shows 108
# Under MenB inh, CC(=O)N1CCN(C(=O)C2C3CC4CC(C3)CC2C4)CC1 (stereo unspecified) shows 10
# Under Polio RdRp inh, NNC(=O)c1csc(COc2ccccc2Cl)n1 shows 100

# (further entries)
SMILES,MenB inh,Polio RdRp inh,Polio RdRp inh intensity,Mtb MbtI inh
O=C(/C=C/c1ccco1)OC1CCOC1=O (stereo unspecified),4,106,101,26
CCOC(=O)c1cc(-c2ccc(F)cc2)n(CC(=O)N2CCc3ccccc3C2)c1C,-13,101,102,2
COC(=O)C1CCN(C(=O)COc2ccccc2)CC1,7,99,103,-21
COC(=O)c1ccc2occ(C(=O)c3ccc(F)cc3)c2c1,-1,100,102,3
Nc1nnc(SCC(O)CO)s1 (stereo unspecified),-57,97,95,37
Cc1cc(N2CC(C)CC(C)C2)n2c(nc3ccccc32)c1C#N (stereo unspecified),-12,102,103,-9
O=C(/C=c1/[nH]c(=O)/c(=C/c2ccccc2C(F)(F)F)s1)c1ccco1,-163,112,121,4
O=C(NC(=S)Nc1cccc(O)c1)c1ccccc1,-7,91,91,9
NC(=O)CN1CCCCCC1=O,-5,104,110,-3
COc1ccccc1OCC(=O)NCCO,-6,99,100,-7
Cc1noc(C)c1/C=N/NC(=S)Nc1ccc(SC(F)F)cc1,-31,100,104,13
CC(Sc1ccccc1)C(=O)O (stereo unspecified),-15,101,104,4
c1ccc2c(CSc3nnc(-c4ccc5c(c4)OCO5)o3)cccc2c1,-13,107,109,-316
Cc1cc(=O)n2c([nH]c3ccccc32)c1C(=O)O,4,99,103,i
CN(C)c1cccc(C(=O)OCC(=O)N(C)c2ccccc2)c1,.,102,98,-21
CCOC(=O)c1cnn(-c2nc(-n3ncc(C(=O)OCC)c3N)c3c4c(sc3n2)COC(C)(C)C4)c1N,-9,101,101,-8
CN(C(=O)Cn1ncc2c(=O)oc3ccccc3c21)c1ccccc1,-26,104,107,0
CC1(c2ccccc2)NC(=O)N(CC(O)c2ccccc2)C1=O (stereo unspecified),-22,101,96,1
CCN1CCN(Cc2c(O)ccc3ccccc23)CC1,-8,105,97,-60
Cc1ccc(C)c2[nH]c(=O)c(C3NC(=O)c4ccccc4N3)cc12 (stereo unspecified),42*,101,102,-29
COc1cc2c(cc1OC)C1=C(C#N)CCC(=O)N1CC2,-19,102,103,-6
O=C(NC(=O)c1csnn1)Nc1ccc(F)c(Cl)c1,0,100,102,4
Cc1cc(C(=O)CN(C)C2CCN(C)CC2)c(C)n1-c1c(C)n(C)n(-c2ccccc2)c1=O,-5,97,101,6
CCC(C)NC(=O)Cn1c(=O)/c(=C\c2ccc(F)cc2)s/c1=C\C(=O)c1ccco1 (stereo unspecified),-8,105,141,0
O=C(NC1=NCCS1)c1ccc2c(c1)C(=O)N(Cc1ccncc1)C2=O,6,101,96,-9

# Overlap with the part before: four compounds, followed by the next part.
SMILES,MenB inh,Polio RdRp inh,Polio RdRp inh intensity,Mtb MbtI inh
O=C(NC(=O)c1csnn1)Nc1ccc(F)c(Cl)c1,0,100,102,4
Cc1cc(C(=O)CN(C)C2CCN(C)CC2)c(C)n1-c1c(C)n(C)n(-c2ccccc2)c1=O,-5,97,101,6
CCC(C)NC(=O)Cn1c(=O)/c(=C\c2ccc(F)cc2)s/c1=C\C(=O)c1ccco1 (stereo unspecified),-8,105,141,0
O=C(NC1=NCCS1)c1ccc2c(c1)C(=O)N(Cc1ccncc1)C2=O,6,101,96,-9
CCCCS(=O)(=O)NC1=NCN(CCO)CN1,-19,104,105,-4
O=C(c1ccc(Oc2ccccc2)cc1)c1coc2ccc(O)cc12,-1,105,110,.
O=C(CSc1nc2cc(Cl)ccc2o1)NCc1ccccc1,.,104,101,-1
CN(Cc1nc2ccccc2c(=O)[nH]1)Cc1cc(=O)oc2cc3c(cc12)CCC3,-32,100,97,5
O=C(Nc1ccccc1C(=O)N1CCN(Cc2ccccc2)CC1)c1ccccn1,-24,105,111,.
O=C(O)CCN1C(=O)c2cccnc2Sc2ccccc21,11,99,103,-4
Cc1ccc2nc(NCc3ccccc3)sc2c1,.,102,105,-14
Cn1c(=O)[nH]c(=O)c2c1nc(N1CCCC1)n2CCO,21,101,102,11
Cc1ccc(CC(=S)N2CCOCC2)cn1,0,101,102,23
CCCCN(C)c1ncnc2oc(C)c(C(=O)OCC)c12,-6,102,101,-5
CCN(CC)C(=O)CSc1nnc(C)s1,-25,100,104,-2
O=c1c2c3c(sc2n2cnnc2n1-c1ccccc1)CCCCC3,-9,104,101,0
O=C(COC(=O)CN1C(=O)C2CC=CCC2C1=O)Nc1cccc2nsnc12 (stereo unspecified),-5,100,91,2
COc1ccc(C2NC(=S)NC(C)=C2C(N)=O)cc1 (stereo unspecified),-12,101,96,12
CCOC(=O)c1ccsc1NC(=O)C1C2C=CC(C2)C1C(=O)O (stereo unspecified),-21,107,100,-15
CC1CCCN(C(=O)c2ccc(Cl)nc2)C1 (stereo unspecified),.,105,105,-13
